Assay outcomes (PubChem)
Rango-impB inh = Rango-importin beta binding inhibition; Potency, µM (series often up to 92.2 µM), without a hit: top-dose inhibition of complex formation; Rango CFP/YFP FRET sensor + importin beta, 45 min; 340,000 compounds, 0.031% hits; AID 540263; Q14974; active = rising FRET ratio curve, often small or poorly fitted; inconclusive = mostly compound fluorescence or quenching in the first reads; inactive = flat curves in all reads;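 also: potency is read from the fitted curve at half-maximal effect; 0% = DMSO wells and 100% = buffer wells lacking importin beta; nearly all actives have a fitted effect of over 15% in size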
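FRET biosensor (snurportin 1 IBB flanked by EYFP and cerulean), 50 nM, with compound 5 min, then 0.125 microM importin beta in PBS, 1 mM DTT, 0.02% Tween-20, 0.1% BSA. CFP/YFP ratio read after 45 min at room temperature; pre-read flags interference.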
Rango release inh = inhibition of RanGTP-driven Rango-importin beta dissociation. O95149+P62826. Biochemical FRET Rango-importin beta, RanGTP-induced dissociation. Potency, µM (titrated, usually from 46.1 µM), without a hit: at the highest dose activity change, negative = inhibition. 340,000 compounds, 0.071% hits; active means falling FRET ratio curve, often poorly fitted, with flat reads before Ran was added; inconclusive means other falling curves, or compound fluorescence or quenching; inactive means flat or rising ratio curve;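 also: potency is read from the fitted curve at half-maximal effect; % of control where 0% means no effect; nearly all actives have a fitted effect of over 45% in size; -100% = wells without RanGTP and RCC1; the record marks most hits as doubtful in a second field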
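FRET read at 45 min, room temperature: inhibitors block the CFP/YFP signal rise when RanGTP (0.6 uM Ran, 2 mM GTP, 0.2 uM RCC1) frees Rango (0.1 uM) from importin beta (0.25 uM). Pre-read after 5 min compound exposure flags interference.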
GLA inh pH 4.5 = blocks human alpha-galactosidase A at pH 4.5. P06280. purified enzyme, 4-MU-alpha-Gal fluorescence, pH 4.5. activity change, negative = inhibition, % at 105 µM. 230,000 tested, under 10 active. AID 1467; inconclusive = small, poorly fitted or top-dose-only inhibition, or a rising curve; inactive = flat fitted curve, though single readings scatter; no compound was filed as active;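 also: 0% = full activity with enzyme and -100% = basal without enzyme; dose as in the result columns while the protocol names 77 µM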
Target sequence (P06280 whole entry, looked up): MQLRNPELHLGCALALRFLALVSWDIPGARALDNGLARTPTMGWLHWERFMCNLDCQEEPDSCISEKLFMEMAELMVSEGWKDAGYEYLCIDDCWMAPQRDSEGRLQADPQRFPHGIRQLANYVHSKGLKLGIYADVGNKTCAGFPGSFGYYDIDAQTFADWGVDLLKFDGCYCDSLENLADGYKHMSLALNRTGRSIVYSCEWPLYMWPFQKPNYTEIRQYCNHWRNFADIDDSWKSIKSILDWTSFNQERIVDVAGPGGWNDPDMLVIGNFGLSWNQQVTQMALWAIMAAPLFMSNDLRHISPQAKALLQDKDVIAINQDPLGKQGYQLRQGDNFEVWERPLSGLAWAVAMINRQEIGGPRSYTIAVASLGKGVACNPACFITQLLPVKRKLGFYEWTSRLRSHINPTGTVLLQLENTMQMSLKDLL
miR-21 FLuc = raises the signal of a miR-21 reporter. HeLa miR-21 FLuc reporter, luciferase, 48 h. Potency, µM (doses to about 38.3 µM), inactives show at the top dose reporter change, positive = more light. 340,000 tested, under 10 active. AID 2288; active = well fitted rising curve with a large enough effect; inconclusive = small, poorly fitted or top-dose-only effect; inactive = no such curve, though single readings can be large or run the other way;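 also: % of control where 0% means no effect; miR-21 action dims this reporter so a rising signal means less miR-21 action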
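HeLa miR-21-FLuc reporter line, endogenous miR-21; 2000 cells/well in DMEM/10% FBS; compound titration up to ~40uM final, 48 h, 37 degree Celsius; luciferase detection reagent, 15 min lysis, CCD luminescence.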
* hit, by the source's call; ? = inconclusive; . = no result given; & = joins results of further samples. Not all compounds are listed; the hit share may differ from the screen's.

cpd	Structure	miR-21 FLuc	Rango-impB inh	Rango release inh	GLA inh pH 4.5
1	COc1ccc(C(=O)Nc2ccc(-c3n[nH]c(=S)o3)cc2)cc1	-33%	-0.3%	-5%	.
2	O=C(Cc1cccc(C(F)(F)F)c1)Nc1ccccc1N1CCCC1	1%	-3.7%	0%	.
3	O=C(CCCN1C(=O)/C(=C\c2cccs2)SC1=S)NNC(=O)c1ccncc1	0%	?	1%	-1
4	Cn1c(=O)c2c(nc(Cl)n2CC(=O)N2CCCCC2)n(C)c1=O	0%	-0.5%	13%	2
5	CCC(C)N(C(=O)CSc1nnc(-c2ccco2)n1C)C1CCS(=O)(=O)C1 (centres undefined)	.	-6.7%	-2%	.
6	O=C(CCN1C(=O)C2C3C=CC(C3)C2C1=O)NCCc1ccccc1Cl (centres undefined)	-17%	-4.5%	0%	10
7	COc1ccc(C(=O)n2nnc3ccccc32)cc1Br	-1%	-1.5%	1%	-7
8	CCN(CC)S(=O)(=O)c1ccc(N=Cc2c(C)c(C#N)c(=O)n(C)c2O)cc1	3%	?	-6%	-4
9	O=c1n(Cc2ccccc2Cl)c2sc3c(c2c2ncnn12)CCCC3	-6%	-5.1%	-4%	-1
10	CCOc1ccc(N(CC(=O)O)S(=O)(=O)c2ccc(OC)c(OC)c2)cc1	-4%	2.4%	2%	1

Limited to GLA inh pH 4.5 and Rango release inh, for three of the compounds above:
| # | smiles | GLA inh pH 4.5 | Rango release inh |
| --- | --- | --- | --- |
| 7 | COc1ccc(C(=O)n2nnc3ccccc32)cc1Br | -7 | 1% |
| 8 | CCN(CC)S(=O)(=O)c1ccc(N=Cc2c(C)c(C#N)c(=O)n(C)c2O)cc1 | -4 | -6% |
| 9 | O=c1n(Cc2ccccc2Cl)c2sc3c(c2c2ncnn12)CCCC3 | -1 | -4% |

(cont.)
cpd	Structure	miR-21 FLuc	Rango-impB inh	Rango release inh	GLA inh pH 4.5
11	Cc1[nH]c(C(=O)O)c(C)c1C(=O)OC(C)C	-3%	0.9%	-10%	-7
12	Cn1nc(CSc2ccccc2)c(C=O)c1Cl	-34%	0.1%	-12%	-1
13	COc1cccc(C(=O)CN2C(=O)C(C)(C)Oc3ccc(C(=O)N4CCOCC4)cc32)c1	-4%	0.1%	-10%	.
14	COc1ccc(N(CC(=O)Nc2ccc(S(=O)(=O)N3CCCCC3)cc2)S(C)(=O)=O)cc1OC	-9%	0.3%	5%	-1
15	CCCCCCCCC(=O)N/N=C(\C)c1ccc(O)cc1O	15%	5.3%	74%	7
16	O=S(=O)(c1ccc(Cl)cc1)N1CCCN(c2nc3ccc(Cl)cc3s2)CC1	1%	-1.1%	1%	-11
17	Cc1cc(NC(=S)NC(=O)CC(C)C)ccc1Br	-32%	-2.0%	0%	5
18	CC1CCN(C(=O)COC(=O)Cn2cnc3c2c(=O)n(C)c(=O)n3C)CC1	.	-0.3%	8%	.
19	O=C(Cc1ccccc1)NCC(=O)N1CCC2(CC1)NCCc1[nH]cnc12	-2%	-1.4%	-14%	.
20	CCN(CC)CC(=O)Nc1sc(C)cc1C(=O)c1ccc(C)cc1	-2%	2.9%	-5%	.
21	COc1ccc(N2CCN(C(=O)[C@H](C)NC(=O)c3ccccc3Cl)CC2)cc1	3%	2.9%	5%	.
22	Brc1cccc(CSc2nnc(-c3ccncc3)o2)c1	14%	-1.5%	-1%	1
23	O=C(Cc1ccccc1)Nc1ccc(N2CCN(Cc3ccccc3F)CC2)cc1	-4%	-1.5%	20%	-9
24	CNC(=O)c1ccc(CNC(=O)OCC(F)(F)F)cc1	0%	?	31%	4
25	CCC1CSC(Nc2ccc(C(=O)/C=C/c3ccc(OC)c(OC)c3)cc2)=N1 (centres undefined)	?	?	?	-13
26	S=c1[nH]nc(CCc2ccccc2)n1-c1ccccc1	-5%	-4.8%	-9%	3
27	O=C1C2C3C=CC(C4CC34)C2C(=O)N1CCc1ccccc1 (centres undefined)	-25%	3.8%	5%	0
28	COCC(=O)OCC(=O)Nc1cc(C(C)(C)C)nn1-c1ccccc1	0%	2.5%	16%	4
29	COc1ccc(N2CCN(CCC(N)=O)CC2)cc1	0%	0.0%	-14%	0
30	COC(=O)c1ccc(NC(=O)c2ccccc2)o1	-25%	-3.3%	4%	-2
31	CCCCOc1ccc([N+](=O)[O-])cc1C(=O)O	4%	2.7%	23%	-4
32	COc1ccc(/C=C(\NC(=O)c2ccc(OC)cc2)C(=O)Nc2cccc(C(=O)O)c2)cc1	1%	3.9%	6%	.
33	O=[N+]([O-])c1c(NCc2ccco2)ncnc1NCc1ccco1	.	2.4%	1%	.
34	Cc1cc(N)n(-c2ncnc3scc(-c4ccccc4)c23)n1	0%	-1.4%	1%	7
35	O=C(/C=C/c1c(F)cccc1Cl)N1CCc2ccccc2C1	-45%	0.3%	5%	.
36	O=C(COc1nsnc1N1CCOCC1)Nc1cccc(Cl)c1	0%	-0.1%	4%	.
37	COc1cccc(CN2CCN(C3CCN(c4cccc(C)c4C)CC3)CC2CCO)c1 (centres undefined)	19%	1.4%	7%	-21
38	N#C/C(=C\c1cccc(OCC(=O)O)c1)c1nc2ccccc2[nH]1	-27%	?	?	.
39	COc1ccc(CC(=O)NNc2ncnc3c2cnn3C)cc1	-20%	-3.5%	-3%	8
40	COc1ccc(OC)c(C2=NOC(C(=O)NCCN3CCOCC3)C2)c1 (centres undefined)	2%	-0.7%	2%	0
41	CC1(C)Cc2c(c(-c3ccccc3)nc3[nH][nH]c(=O)c23)CO1	0%	1.4%	-11%	0
42	COc1ccc(N2CCN(C(=O)c3ccc4c(c3)CC(c3ccccc3)OC4=O)CC2)cc1 (centres undefined)	.	-1.4%	0%	.
43	CN(c1ccccc1C(=O)N1CCc2ccccc2C1)S(C)(=O)=O	0%	0.1%	-5%	-11
44	O=S(=O)(c1ccccc1)c1cnc2ccccc2c1	.	5.8%	14%	.
45	CCN(Cc1ccccc1)C(=O)c1c[nH]c2ccc(S(=O)(=O)N(C)CCC#N)cc2c1=O	-9%	3.5%	4%	5
46	Cc1cc(C)nc(N2N=C(C(F)(F)F)CC2=O)n1	3%	-3.0%	?	-15
47	CC(=O)N/C(=N\OCc1ccccc1Cl)c1nonc1NC(C)=O	-22%	-3.4%	-9%	2
48	CC1CCc2sc(C(=O)N(C)CC(=O)Nc3cccc(F)c3)cc2C1 (centres undefined)	-13%	2.9%	10%	.
49	CCCCN(CCCC)CCC(O)c1cc2c(Cl)cc(Cl)cc2c2cc(C(F)(F)F)ccc12 (centres undefined)	.	-2.3%	-11%	2
50	Cc1ccc(Nc2c(-c3ccc(N4CCOCC4)cc3)nc3ncccn23)cc1C	-10%&-14%	?	-15%	5
51	CCOC(=O)c1nn(-c2ccccc2)c(=O)cc1OCC(=O)Nc1ccccc1OCC	.	0.1%	18%	.
52	Cc1ccc(S(=O)(=O)N2CCCCC2)cc1NC(=O)Cc1cccs1	.	-0.1%	17%	.
53	O=C(NCc1ccccn1)C(=O)N/N=C/c1ccccc1O	0%	7.3%	-2%	-2
54	CC(=O)N/C(=C\c1ccc(C)cc1)C(=O)O	5%	-0.5%	12%	14
55	C=CCn1c(SCC(=O)c2ccc(O)c(O)c2)nnc1-c1cccc(OC)c1	.	1.2%	-6%	.
56	Cc1c(NC(=O)COC(=O)/C=C/c2cccc(Br)c2)c(=O)n(-c2ccccc2)n1C	.	2.5%	-13%	.
57	O=C(CCC(=O)OCC(=O)c1ccc(Br)cc1)Nc1cccc2cccnc12	-1%	0.5%	-2%	-3
58	CC(=O)NC1=NN(C(C)=O)C(C)(CC(=O)OC(C)(C)C)S1 (centres undefined)	0%	0.9%	-3%	-1
59	COC(=O)c1ccc(N2CCN(CCNC(=O)Nc3ccc(OC)cc3)CC2)cc1	11%	16%	15%	.
60	COc1ccc(/C=C(\CC(=O)O)c2nc3ccccc3s2)cc1O	1%	0.1%	?	-6

(listing goes on)
cpd	Structure	miR-21 FLuc	Rango-impB inh	Rango release inh	GLA inh pH 4.5
61	CC(=O)c1ccc(OCC(O)CN2CCOCC2)cc1 (centres undefined)	4%	0.4%	-8%	-13
62	Nc1ncc([N+](=O)[O-])cc1Br	-13%	-1.4%	-1%	-1
63	COCCOC(=O)c1c(NC(=O)CNCc2ccco2)sc(C(N)=O)c1C	-17%	-0.1%	-25%	5
64	Cc1ccc2c(CC(=O)NC3=NCCS3)coc2c1	-17%	0.7%	1%	-10
65	CC(=O)c1cn(CC(=O)NCc2cccnc2)c2ccccc12	-2%	-0.7%	-13%	1
66	Cc1cccc(Nc2nc(N3CCOCC3)nc(N3CCOCC3)n2)c1	-4%	-3.1%	-10%	.
67	O=C1/C(=C/c2ccncc2)SC(=S)N1C1CCCCC1	3%	1.0%	11%	-3
68	CCCC1(CCC)NC(=O)N(CC(=O)N2CCN(C(=O)c3ccco3)CC2)C1=O	2%	0.5%	0%	1
69	O=C(NCc1ccccc1C(F)(F)F)C1CC(c2cc(C(F)(F)F)cc(C(F)(F)F)c2)=NO1 (centres undefined)	1%	0.2%	-18%	-23
70	Nc1nc(SCC(=O)NCC2CCCO2)n[nH]1 (centres undefined)	-5%	0.8%	-2%	4
71	CCOC(=O)c1[nH]c2ccc(OC)cc2c1NC(=O)c1ccc(OC)c(OC)c1	-14%	-0.1%	-6%	6
72	c1ccc(N2CCN(C3CCSC3)CC2)cc1 (centres undefined)	-17%	0.9%	15%	-8
73	COCCSc1nnc(NC(=O)Cc2ccc(OC)cc2)s1	1%	-3.0%	2%	3
74	O=C(CSc1nnc(NC(=O)c2ccco2)s1)Nc1ccccc1	-26%	-1.1%	9%	0
75	COC(C(=O)NNS(=O)(=O)c1ccccc1[N+](=O)[O-])c1ccccc1 (centres undefined)	1%	1.9%	-9%	.
76	Cc1cccc(NC(=O)CSc2nc3[nH]ncc3c(=O)n2-c2ccccc2)c1	-33%	.	.	8
77	O=C(O)c1cc(-c2c[nH]c3ccccc23)nc2ccc3ccccc3c12	-5%	?	-4%	-13
78	O=S(=O)(Cc1ccccc1)N1CCN(C/C=C/c2ccccc2)CC1	-3%	4.5%	-14%	-6
79	CCOc1ccc(S(=O)(=O)Nc2cccc(C(=O)N3CC(C)OC(C)C3)c2)cc1 (centres undefined)	.	-2.8%	15%	.
80	COc1ccc(-c2nc3cccc(C)n3c2NCC2CCCO2)cc1O (centres undefined)	-26%	?	-14%	5
81	COc1ccc(S(=O)(=O)Nc2ccc3c(c2)C(=O)N([C@H](C)CO)C[C@H](C)[C@@H](CN(C)C(=O)Nc2ccccc2)O3)cc1	.	-2.0%	8%	.
82	CCCN(CC(=O)Nc1ccccc1Br)CC(=O)Nc1ccc(F)c(F)c1F	3%	9.3%	?	-12
83	CCCC(=O)N(CCN1CCOCC1)c1nc2ccc(OCC)cc2s1	-17%	5.1%	5%	.
84	O=C(NN1C(=O)C2C(C1=O)C1C=CC2C12CC2)c1ccncc1 (centres undefined)	-6%	0.5%	10%	-2
85	COc1ccsc1NC(=O)OCc1ccc(Cl)cc1	-45%	0.3%	18%	.
86	COc1ccccc1CNC(=O)c1cnn2c(C(F)F)cc(C)nc12	-23%	-0.3%	-8%	-9
87	Cc1ccc([N+](=O)[O-])cc1NC(=O)CNC1CCCCC1	1%	0.0%	0%	.
88	CC(OC(=O)c1cc[n+]([O-])cc1)C(=O)NCc1ccccc1 (centres undefined)	.	0.6%	13%	.
89	COC(=O)CSc1nc2sc3c(c2c(=O)n1-c1ccc(OC)cc1)CCN(C)C3	5%	4.1%	-19%	.
90	CN(C)S(=O)(=O)c1cccc(C(=O)Nc2cc(S(=O)(=O)N3CCOCC3)ccc2N2CCCC2)c1	.	-2.3%	-12%	.
91	O=S(=O)(Nc1c(F)cccc1F)c1ccc2c(c1)OCCO2	2%&-1%	-3.4%	13%	.
92	COCCNC(=O)C1CC(c2cccc(F)c2)=NO1 (centres undefined)	0%	3.7%	-17%	3
93	Cc1cccc(CCNC(=O)c2cc(=O)[nH]c3ccc(Br)cc23)c1	-4%	.	.	1
94	CCS(=O)(=O)N1CCCC(C(=O)NC2CCCC2)C1 (centres undefined)	-1%	1.2%	0%	7
95	CC(C)c1ccc(/C=N/n2cnnc2)cc1	-9%	-0.9%	-8%	1
